High-throughput results from PubChem BioAssay.
gsp agonist: activates gsp, the McCune-Albright syndrome mutation. gsp mutant cells, cAMP HTRF, 30 min; control for the full effect not named in the record. 0.13% of 340,000 active. AID 624287. Potency, µM (doses to about 76.9 µM), inactives show top-dose activation (cAMP increase), most hits filed as activators; active = well fitted activation curve with a large enough effect; inconclusive = small, poorly fitted or top-dose-only effect, or another doubt; inactive = no such curve, though single readings can be large or run the other way; cell line not stated here;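 also: phosphodiesterase inhibitor Ro 20-1724 added with compounds to block cAMP breakdown; potency is read from the fitted curve at half-maximal effect; nearly all actives have a fitted effect of over 60% in size; about a fifth of the inactives were tested at one dose only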
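Cells stably selected in G418 were plated at 2000/well, grown 16-24 hr, then given compounds in DMSO with the PDE inhibitor […] (300 uM solution added) for 30 min at 37C; cAMP was read by HTRF.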
TRPML1 inh: blocks the human TRPML1 channel. Q9GZU1. TRPML1-inducible cells, Ca2+ dye fluorescence, FDSS; active compounds read low; inhibition of EC80 agonist-evoked calcium signal. activity change, negative = inhibition, % (no concentration beside the values). 0.02% of 390,000 active. AID 624415; in the data active means activity change below about -50%; inconclusive means about -30% to -50%; inactive means above about -30%;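 also: stimulus is agonist 54-4 at its EC80 concentration; % is scaled to controls: 0 for no effect and ±100 for the full control effect; compound concentration not given in the record; the text of the record puts the active cut at -80%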
Target sequence (Q9GZU1 whole entry, looked up): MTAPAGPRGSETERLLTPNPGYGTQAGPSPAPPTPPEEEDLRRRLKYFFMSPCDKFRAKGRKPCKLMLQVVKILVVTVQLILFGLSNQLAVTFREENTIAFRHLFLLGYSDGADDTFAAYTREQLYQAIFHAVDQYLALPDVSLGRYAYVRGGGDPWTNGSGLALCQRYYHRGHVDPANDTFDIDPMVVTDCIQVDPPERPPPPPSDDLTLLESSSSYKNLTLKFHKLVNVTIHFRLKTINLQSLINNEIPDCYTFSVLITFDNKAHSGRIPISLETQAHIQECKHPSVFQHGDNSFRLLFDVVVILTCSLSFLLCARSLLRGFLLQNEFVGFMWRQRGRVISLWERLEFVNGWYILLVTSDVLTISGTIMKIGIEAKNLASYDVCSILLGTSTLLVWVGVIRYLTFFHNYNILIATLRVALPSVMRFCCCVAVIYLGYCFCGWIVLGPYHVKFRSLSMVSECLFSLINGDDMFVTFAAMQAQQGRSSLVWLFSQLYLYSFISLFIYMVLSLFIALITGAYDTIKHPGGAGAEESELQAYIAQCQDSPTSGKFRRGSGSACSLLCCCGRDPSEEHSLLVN
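TRPML1-DL cells, Tet-induced overnight (~16 h, 37 °C) at 1,500 cells/well, were loaded with Ca8 no-wash dye plus quencher for 45-90 min at room temperature. Compounds were pinned during FDSS kinetic reading; agonist 54-4 at EC80 (4 uM final) then added.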
TRPML1 agonist: human mucolipin-1 channel agonism. Q9GZU1. TRPML1-expressing cells, Ca2+ dye fluorescence, FDSS; host cell line not named in the record; reference of the full effect not given here. activation, % (test concentration not listed). 0.12% of 410,000 active; in the data active = activation above about 50%; inconclusive = about 30% to 50%; inactive = below about 30%; also: 0% is about no effect; the text of the record puts the active cut at 80%
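Tet-induced TRPML1-DL cells, 1,500 per well, cultured overnight, were loaded with a no-wash Ca2+ dye for 45–90 min. Calcium fluorescence was recorded on the FDSS for 110 s after compound addition, before the EC80 agonist (4 uM 54-4) was added.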
ClpP mod: qHTS Assay for Activators of ClpP. ATP-dependent Clp protease proteolytic subunit (Bacillus subtilis (strain 168)), P80244. purified B. subtilis ClpP, FRET peptide cleavage, 20 min. Potency, µM (top dose mostly 57.5 µM), for the others: at the top dose activity change, negative = active. 1.9% of 340,000 active; active = well fitted falling curve with a large enough effect; inconclusive = small, poorly fitted or top-dose-only effect; inactive = no such curve, though single readings can be large or run the other way; also: potency is read from the fitted curve at half-maximal effect; the source files actives as falling curves though it sought activators and does not explain the sign; nearly all actives have a fitted effect of over 65% in size; many hits overshoot -100%
Target sequence (P80244 whole entry, looked up): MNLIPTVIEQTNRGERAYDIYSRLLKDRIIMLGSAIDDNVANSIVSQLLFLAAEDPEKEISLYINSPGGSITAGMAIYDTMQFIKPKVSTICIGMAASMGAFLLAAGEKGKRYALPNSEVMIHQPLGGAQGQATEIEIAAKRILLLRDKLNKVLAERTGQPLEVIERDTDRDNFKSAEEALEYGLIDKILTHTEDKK
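ClpP 10 microg/mL final, pH 8 Tris/KCl buffer with BSA, glycerol, Tween-20; compound pinned in; FRET-FV substrate; RT 20 min; Ex320/Em430; ΔFRET vs ADEP 5.8 microM, DMSO, no enzyme.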
gsp antagonist: gsp mutant antagonism | gsp-mutant cells, cAMP HTRF, 30 min; control for the full effect not named in the record | Potency, µM (titrated, usually from 76.9 µM), inactives show at the top dose activity change, negative = inhibition, actives largely listed as inhibitors | 0.4% of 340,000 active; active = falling curve of any shape with a large fitted effect; inconclusive = falling curve, mostly with a smaller effect; inactive = flat or rising curve; cell line not stated here;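 also: intracellular cAMP measured with PDE inhibitor Ro 20-1724 present during compound exposure; potency is read from the fitted curve at half-maximal effect; % is scaled to controls: 0 for no effect and ±100 for the full control effect; nearly all actives have a fitted effect of over 65% in size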
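Cells, 2000/well, grown 16–24 h in DMEM 10% FBS with 0.5 mg/ml G418, then compounds plus […] (300 uM addition stock), 30 min at 37C. cAMP read by HTRF (cAMP-d2 and anti-cAMP antibody-K in lysis buffer) after 30 min RT.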
Menin MLL FP FL: menin-MLL binding inhibition, fluorescein peptide | Fluorescence polarization, fluorescein-MLL peptide displacement from menin | FP activity change, % at 61.4 µM | 290,000 tested, under 10 active | AID 1766; inconclusive = falling polarisation curve, or a change in total fluorescence; inactive = total fluorescence flat and polarisation flat or rising; no compound was filed as active; the % refers to the polarisation; negative = inhibition;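 also: % of control where 0% means no effect; inhibitors lower the polarisation; unlabelled MLL peptide was the positive control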
Starred values were filed as active, the others as inactive; ? = inconclusive; nt = no result given; [ ] = remark or other dose. This is a random part of the collection; about 2.1% have a hit in one of these screens.

SMILES	gsp agonist	TRPML1 inh	TRPML1 agonist	ClpP mod	gsp antagonist	Menin MLL FP FL
C#CCOCCOCCOCCNc1nc(N2CCN(C(=O)CCCCCCCCCCNC(=O)[C@@H](CCSC)n3cc(CCO)nn3)CC2)nc(N2CCN(C(=O)CCCCCCCCCCNC(=O)[C@H]([C@@H](C)CC)n3cc(CCCCN=C(N)N)nn3)CC2)n1	nt	-1	-0.6	0.5%	0%	nt
COc1cccc(OCC(=O)N2CCCc3ccccc32)c1	?	7	0.8	nt	3%	5.6
CCOc1ccc(CNS(=O)(=O)c2ccc3c(c2)CCCN3C(C)=O)cc1	nt	7	0.2	0.6%	nt	nt
Cc1ccc(S(=O)(=O)Nc2cc(C(=O)NCCN3CCCC3)ccc2N2CCCCC2)cc1	-25%	64	-0.4	-1.7%	49%[activator]	4.0
COc1ccccc1/C=C/c1nc(C#N)c(N2CCN(c3ccccc3)CC2)o1	nt	3	-0.7	4.6%	nt	nt
COc1ccc(/C=C/CN2CCC(n3nccc3NC(=O)C3CC3)CC2)cc1	-63%[inhibitor]	-8	0.2	-1.5%	12%	-0.1
O=C(Cn1nc(Cc2ccncc2)c2ccccc2c1=O)N1CCc2ccccc2C1	-8%	48	1.9	-0.4%	-6%	0.2
O=C(NCc1ccccc1)N1CCNCC1	3%[15.4 µM]	5	0.5	1.8%	15%	-0.7
CCN1CCN(c2ccc(S(=O)(=O)N3CCCCC3)cc2NC(=O)COc2cc(C)ccc2Cl)CC1	5%[15.4 µM]	24	-0.4	1.7%	-13%	nt
O=C(COc1coc(CN2CCc3ccccc3C2)cc1=O)Nc1cccc(Cl)c1	5%[15.4 µM]	6	-1.1	nt	-20%	nt
Cc1ccc(SCC(=O)NCc2cccnc2)cc1	-9%	-2	-0.1	0.8%	7%	1.3
CCC1=NN2C(=N)/C(=C\c3cccn3-c3ccc(C)c(C)c3)C(=O)N=C2S1	14%	-4	0.4	nt	-36%	-1.1
Cc1cc(-c2n[nH]c(=S)n2/N=C/c2ccccc2[N+](=O)[O-])n[nH]1	14%	2	-0.4	-30%	-10%	1.4
O=c1ccc(C(F)(F)F)cn1Cc1cc(=O)n2ccsc2n1	-1%[15.4 µM]	-4	0.3	-5.2%	4%	-3.7
COc1cccc(-n2c(=O)c3c(C)c(C(=O)N(C)C)sc3n(Cc3cccc(C)c3)c2=O)c1	nt	10	1.5	-1.7%	nt	nt
O=C(CCc1ccc(S(=O)(=O)N2CCOCC2)cc1)OCc1nc2ccccc2s1	-47%	-2	2.2	-2.9%	-6%	0.3
COC(=O)c1ccc(/C=N/Nc2nc(-c3ccc(C)cc3)cs2)cc1	0%	-8	-0.2	-2.3%	2%	0.2
COc1ccc(OCC(=O)N2CCN(S(=O)(=O)c3ccc4c(c3)OCCO4)CC2)cc1	-40%[inhibitor]	1	-0.4	-1.1%	nt	nt
CCOc1ccc(N2C(=O)C3C(C2=O)C3(c2ccccc2)c2ccccc2)cc1 (stereo unspecified)	?	5	2.5	-2.8%	-24%	0.8
Fc1ccccc1/C=C1\CCCC2=C1NC(=S)NC2c1ccccc1F (stereo unspecified)	0%[15.4 µM]	2	-0.4	nt	-19%	0.1
COc1ccc(S(=O)(=O)NCCSCc2cccc(C)c2)cc1Br	21%	-15	2.6	0.0%	?	1.0
O=C(c1cnn2c(C(F)F)cc(C3CC3)nc12)N1CCc2ccccc2C1	-5%	25	2.0	-9.1%	1%[15.4 µM]	4.9
Cc1[nH]c2ccccc2c1CC#N	-19%	-5	-0.1	nt	-12%	3.1
S=C(Nc1ccccc1)Nc1cccc(Cl)c1Cl	4%	0	0.3	-2.2%	9%	0.2
CN1CCN(c2ccc(Cl)cc2NC(=O)C2COc3ccccc3O2)CC1 (stereo unspecified)	-21%	21	-0.8	-1.7%	4%	5.4

(further entries)
SMILES	gsp agonist	TRPML1 inh	TRPML1 agonist	ClpP mod	gsp antagonist	Menin MLL FP FL
Cc1nnc(SCC(=O)NCc2ccc3c(c2)OCO3)s1	-11%	-5	0.6	-1.8%	10%	-0.1
O=C(CN1CCN(c2ccc(Cl)cc2)CC1)c1ccc2c(c1)OCO2	-17%	-7	-0.1	?	2%[15.4 µM]	4.0
CCC(C)(C)n1nnnc1C(c1ccncc1)N1CCC(C)CC1 (stereo unspecified)	10%	-3	-1.7	0.7%	22%	-0.6
COC(=O)COc1cccc(NC(=O)c2ccccc2)c1	-29%	-3	0.6	-1.1%	-15%	2.3
COc1ccc(OC)c(NC(=O)CSc2nnc(-c3ccncc3)s2)c1	-2%	-3	0.3	1.4%	?	1.0
CCC(C)c1ccc(OCCN2CCCC2)cc1 (stereo unspecified)	-40%[inhibitor]	0	-0.9	-0.1%	-8%	-1.2
O=C1COc2ccc(C(=O)C[n+]3cccc(O)c3)cc2N1	8%[15.4 µM]	2	0.7	nt	13%	-0.9
COc1ccccc1OCCSc1ncnc2nc[nH]c12	?	26	0.9	-1.3%	-1%	0.5
CCC(c1c(C)n(C)n(-c2ccccc2)c1=O)c1c(C)n(C)n(-c2ccccc2)c1=O	?	4	-0.6	0.7%	3%	1.6
CN1CCN(S(=O)(=O)c2cccc(C(=O)Nc3cccc([N+](=O)[O-])c3)c2)CC1	5%[15.4 µM]	18	0.0	-1.3%	-17%	nt
Cc1ccc(Nc2nc(-c3cccnc3)nc3ccccc23)cc1	12%	0	5.5	nt	?	9.9
C[C@H](CO)N1C[C@H](C)[C@H](CN(C)S(=O)(=O)c2ccc(Cl)cc2)OCc2ccccc2-c2c(n(C)c3ccccc23)C1=O	-10%	-4	4.0	-9.5%	nt	nt
Cc1ccc(S(=O)(=O)N(C)C)cc1NC(=O)COC(=O)/C=C/c1cccs1	-32%[inhibitor]	2	0.2	-1.2%	-4%	nt
COc1ccccc1S(=O)(=O)NCc1ccc(C(=O)NC2CCC(O)CC2)cc1 (stereo unspecified)	?	3	-0.2	-3.4%	-11%	nt
CCOC(=O)C1=NNC(C(=O)c2ccc(C)cc2)C1c1ccc(OC)cc1 (stereo unspecified)	-16%	-14	1.7	0.0%	-7%	1.1
CCN(CC(=O)NCc1ccc(F)cc1)CC(=O)NC1CCCC1	0%[15.4 µM]	-2	0.4	nt	-21%	2.7
COc1ccc(/C=N/N2C(=O)CSC2=S)cc1Br	-49%[inhibitor]	-23	7.0	-1.5%	1%	nt
Cc1ccc(C2=CC(c3ccc(Cl)cc3)n3nc(-c4ccc(C)cc4)nc3N2)cc1 (stereo unspecified)	nt	10	2.3	-12%	nt	nt
CC(=O)Nc1ccc(NC(=O)c2ccc3c(c2)NC(=O)c2ccccc2S3)cc1	nt	3	-1.2	-2.0%	nt	nt
COc1ccc(OC)c(-c2noc(N3CCN(c4cccc(C)c4C)CC3)n2)c1	nt	-8	2.2	-2.5%	nt	nt
O=C(O)c1cc2nc(-c3ccc(F)cc3)cc(C(F)(F)F)n2n1	8%	-12	-0.8	-1.0%	-16%	5.7
Cc1[nH][nH]c(=O)c1C(c1ccc(-c2ccc(C(=O)O)cc2)o1)c1c(C)[nH][nH]c1=O	-20%[15.4 µM]	10	-0.1	nt	-1%	1.8
CCOc1cc(S(=O)(=O)N2CCCC2)c(C)cc1C	27%	5	1.9	nt	-1%	-4.8
CC(=O)OCC(=O)C1CCC2C3CCC4=CC(=O)C=CC4(C)C3CCC12C (stereo unspecified)	-53%[inhibitor]	-4	0.6	1.9%	-14%	nt
COc1cc(C(O)CO)ccc1O (stereo unspecified)	nt	6	0.0	-3.0%	4%	-2.4

Next section.
SMILES	gsp agonist	TRPML1 inh	TRPML1 agonist	ClpP mod	gsp antagonist	Menin MLL FP FL
COc1ccc(NC2CCCN(C(=O)c3ccc(C(C)=O)s3)C2)cc1 (stereo unspecified)	14%	-2	-0.9	-1.0%	?	3.1
Cc1cccc(NC(=S)N(Cc2cccs2)Cc2cc3cc(C)ccc3[nH]c2=O)c1	1%	-10	-0.7	-11%	-5%	0.6
CCOc1ccc(N2CC(c3nc4ccccc4n3CCCOc3ccc(OC)cc3)CC2=O)cc1 (stereo unspecified)	nt	4	-0.1	0.8%	nt	nt
COc1ccc(Cl)cc1NC(=O)c1ccc(CN2C(=O)CCn3nc(C)cc32)cc1	nt	?	1.4	-5.5%	nt	nt
CCCCN(C)C(=O)c1ccc2c(c1)N(Cc1cccc(Cl)c1)C(=O)c1ccccc1S2=O (stereo unspecified)	nt	6	0.3	1.2%	nt	nt
O=C(CN1CCN(c2ccccc2O)CC1)NC(=O)NCc1ccco1	-23%	-1	1.3	-2.9%	-2%	0.6
CC1=C(C(=O)N(C)C)CC(CC(=O)NCc2cccs2)C(=O)N1Cc1ccc(F)cc1 (stereo unspecified)	nt	34	-0.4	-2.7%	nt	nt
C=CCSc1nc2sc(C)c(C)c2c(=O)n1N	-53%[inhibitor]	10	3.0	-4.0%	-8%	-0.2
Nc1nccc(-c2cccs2)n1	12%[15.4 µM]	-20	0.6	nt	-2%	-4.2
C=CCSc1nc2c(cnn2-c2ccc(C)c(C)c2)c(=O)[nH]1	-6%	-7	-0.9	-1.8%	9%	1.2
CC(OC(=O)CCC1CCCCC1)C(=O)Nc1ccc(S(N)(=O)=O)cc1 (stereo unspecified)	3%	1	1.1	0.3%	2%	nt
CCCSc1nnc(-c2c[nH]c3ccccc23)n1C	-7%	-5	0.1	-1.2%	-2%	1.5
O=C(NN1C(=O)C2C3C=CC(C4CC34)C2C1=O)c1ccc(Cl)cc1Cl (stereo unspecified)	-19%	20	1.1	-2.0%	3%	-2.0
Cc1cc(=O)[nH]c(SCC(=O)c2ccc(C(C)C)cc2)n1	-43%[inhibitor]	-1	0.0	-0.8%	-1%	1.4
Cc1ccc(CC(=O)N2CCN(c3cccc(C(F)(F)F)c3)CC2)cc1	?	0	1.1	10µM*	-9%	-4.6
Cc1ccc(-n2c(C)nnc2SCC(=O)N(C)c2c(N)n(Cc3ccccc3)c(=O)[nH]c2=O)cc1	-5%	4	0.3	-1.8%	11%	nt
CC1CCCN(C(=O)C2CCCN(S(=O)(=O)c3cccc4nsnc34)C2)C1 (stereo unspecified)	-3%	-11	-0.2	-1.3%	-1%	0.6
O=C(OCC(=O)N1CCc2ccccc2C1)c1cccs1	4%[15.4 µM]	12	2.4	nt	nt	-5.2
CC(=O)Nc1ccc(S(=O)(=O)N2CCc3cc4c(cc3C2)OCCCO4)cc1	-19%	35	-0.6	-3.5%	-12%	-2.2
COc1ccc(C)cc1S(=O)(=O)N(C)CC(=O)N1CCC(C(N)=O)CC1	-4%[15.4 µM]	10	-1.0	nt	4%	-3.4
COc1ccccc1-c1c(-c2ccc(OCC(=O)NN)cc2O)n[nH]c1C(F)(F)F	34%	-14	-0.6	-5.5%	6%	6.7
CCCOc1ccc(C(=O)NC(=S)N2CCN(c3cc4c(cc3F)c(=O)c(C(=O)O)cn4CC)CC2)cc1	-3%[15.4 µM]	14	-0.4	nt	-4%	3.0
